Screening data (PubChem)
TRPML1 blocker = human mucolipin-1 channel inhibition | Q9GZU1 | TRPML1-inducible cells, Ca2+ dye fluorescence, FDSS; hits give low values; inhibition of EC80 agonist-evoked calcium signal | activity change, negative = inhibition, % (no concentration beside the values) | 390,000 compounds, 0.02% hits; in the data active means activity change below about -50%; inconclusive means about -30% to -50%; inactive means above about -30%;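 also: stimulus is agonist 54-4 at its EC80 concentration; % is scaled to controls: 0 for no effect and ±100 for the full control effect; compound concentration not given in the record; the text of the record puts the active cut at -80%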
Target sequence (Q9GZU1 whole entry, looked up): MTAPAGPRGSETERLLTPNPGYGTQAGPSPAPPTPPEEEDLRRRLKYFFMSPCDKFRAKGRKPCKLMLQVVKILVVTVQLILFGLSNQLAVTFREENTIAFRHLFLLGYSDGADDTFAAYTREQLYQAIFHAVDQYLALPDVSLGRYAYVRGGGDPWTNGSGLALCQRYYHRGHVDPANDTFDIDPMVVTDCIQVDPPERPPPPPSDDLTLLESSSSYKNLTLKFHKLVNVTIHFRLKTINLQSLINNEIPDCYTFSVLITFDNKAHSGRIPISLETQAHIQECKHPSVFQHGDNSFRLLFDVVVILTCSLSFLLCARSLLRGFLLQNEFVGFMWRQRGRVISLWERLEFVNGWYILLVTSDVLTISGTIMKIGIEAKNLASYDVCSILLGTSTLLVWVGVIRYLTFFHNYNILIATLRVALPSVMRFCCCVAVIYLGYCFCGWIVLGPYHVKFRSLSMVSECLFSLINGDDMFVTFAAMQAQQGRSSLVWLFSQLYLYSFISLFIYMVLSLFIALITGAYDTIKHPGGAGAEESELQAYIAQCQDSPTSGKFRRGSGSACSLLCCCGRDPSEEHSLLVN
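TRPML1-DL cells, Tet-induced overnight (~16 h, 37 °C) at 1,500 cells/well, were loaded with Ca8 no-wash dye plus quencher for 45-90 min at room temperature. Compounds were pinned during FDSS kinetic reading; agonist 54-4 at EC80 (4 uM final) then added.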
D2 agonist = activates the human D2 dopamine receptor. activation, % (concentration not given with the values). P14416. 360,000 compounds, 0.084% hits. AID 624465. DiscoveRx PathHunter D2 beta-arrestin, luminescence, 90 min; 100% = 57 uM dopamine signal; in the data active = activation above about 40%; inconclusive = about 15% to 40%; inactive = below about 15%; also: the text of the record calls up to 30% inactive
Target sequence (P14416 whole entry, looked up): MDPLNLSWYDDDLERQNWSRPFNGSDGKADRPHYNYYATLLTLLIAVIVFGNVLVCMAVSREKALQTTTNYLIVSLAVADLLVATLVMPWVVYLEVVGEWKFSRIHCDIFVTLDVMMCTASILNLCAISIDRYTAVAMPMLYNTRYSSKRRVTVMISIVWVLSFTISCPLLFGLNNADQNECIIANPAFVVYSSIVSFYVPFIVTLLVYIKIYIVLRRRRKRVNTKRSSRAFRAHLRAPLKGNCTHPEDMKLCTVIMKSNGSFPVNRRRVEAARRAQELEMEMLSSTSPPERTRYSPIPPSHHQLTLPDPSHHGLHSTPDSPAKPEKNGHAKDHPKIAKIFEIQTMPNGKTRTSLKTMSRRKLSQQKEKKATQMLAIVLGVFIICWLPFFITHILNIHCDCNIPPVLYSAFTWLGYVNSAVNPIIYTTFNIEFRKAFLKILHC
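DiscoveRx PathHunter D2 beta-arrestin cells (2,100/well) attached overnight, then compound-stimulated 90 min at 37 C in HBSS/10 mM HEPES/0.1% Tween-20 buffer; beta-galactosidase complementation read by luminescence after 1 h at ambient temperature. Dopamine 57 uM final (EC100) as control.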
CtBP-E1A inh = blocks the CtBP interaction with E1A; AlphaScreen GST-E1A/His-CtBP binding, 1536-well; hits give low values; control for the full effect not named in the record; 340,000 compounds, 0.49% hits; activity change, % (no concentration beside the values); in the data active means activity change below about -65%; inconclusive means about -30% to -65%; inactive means above about -30%; also: % is scaled to controls: 0 for no effect and ±100 for the full control effect
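In 5 uL wells, 23 nL compound meets equimolar GST-E1A and His-CtBP (5X stock 125 nM each) for 2 h, 37 °C. Beads (5X, 50 ug/mL) then 1 h, 37 °C, dark.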
TRPML1 ag = activates the human TRPML1 channel; Q9GZU1; TRPML1-expressing cells, Ca2+ dye fluorescence, FDSS; host cell line not named in the record; reference of the full effect not given here; activation, % (concentration not given with the values); 410,000 compounds, 0.12% hits; AID 624414; in the data active = activation above about 50%; inconclusive = about 30% to 50%; inactive = below about 30%; also: 0% is about no effect; the text of the record puts the active cut at 80%
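Kinetic FDSS Ca2+ read in Tet-induced TRPML1-DL cells (ABD Ca8 dye plus quencher, 45-90 min RT loading): baseline, then compound, then 110 s agonist window; EC80 agonist 54-4 at 4uM final added afterwards for a 110 s antagonist window.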
Six1-Eya2 inh = inhibitors of human Six1/Eya2 interaction; Q15475+O00167; AlphaScreen GST-Six1/His-Eya2 binding, biochemical; hits give low values; control for the full effect not named in the record; activity change, % (test concentration not listed); 360,000 compounds, 0.56% hits; AID 651725; in the data active = activity change below about -65%; inconclusive = about -30% to -65%; inactive = above about -30%; also: % is scaled to controls: 0 for no effect and ±100 for the full control effect
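AlphaScreen luminescence read after one hour at 37 °C in darkness. Pin-transferred compounds met GST-Six1 and His-Eya2 protein (5X stock 250 nM/500 nM) plus glutathione donor and Ni-chelate acceptor beads (5X, 50 ug/mL).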
PINK1 modulator = PINK1 expression modulation. PINK1 immunofluorescence, high-content cytometry, 24 h. Potency, µM (highest dose often 76.6 µM), inactives show at the highest dose activation (PINK1 increase), hits mostly activators. 410,000 compounds, 0.2% hits; active = well fitted activation curve with a large enough effect; inconclusive = small, poorly fitted or top-dose-only effect; inactive = flat fitted curve, though single readings scatter; cell line not stated here;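 also: potency is read from the fitted curve at half-maximal effect; % of control where 0% means no effect; nearly all actives have a fitted effect of over 65% in size; a mitochondrial uncoupler was the plate control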
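PINK1 protein level read as immunofluorescence by microplate cytometer in a fixed, stained stable cell line after 24 h exposure to five compound concentrations, with CCCP as control.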
Numbers without * were called inactive; ? = inconclusive; · = no result given; [ ] = another dose, or the depositor's remark.

Each structure is followed by: TRPML1 blocker | D2 agonist | CtBP-E1A inh | TRPML1 ag | Six1-Eya2 inh | PINK1 modulator
CC1Cc2cc(S(=O)(=O)NCCc3ccccc3)ccc2N1C(=O)C1CC1 (stereo not drawn)
    65 | -3.2 | -5 | -0.1 | 3 | 3.7%
CC(C)(CNC(=O)CCC1CCCC1)CNC(=O)CCC1CCCC1
    4 | -6.6 | 9 | 0.4 | 1 | 4.9%
CCOC(=O)N1CCC(n2c(SCC(=O)N3CCCC3)nc3ccccc3c2=O)CC1
    -3 | 0.1 | -4 | -0.1 | 5 | ·
CC(C(=O)c1c[nH]c(C(N)=O)c1)c1ncc(C(F)(F)F)cc1Cl (stereo not drawn)
    13 | 4.4 | · | 0.3 | 14 | 1.5%
COc1cc(CCC(=O)OCC(=O)Nc2c(C)cc(C)cc2C)cc(OC)c1OC
    5 | -2.7 | 2 | 2.0 | 1 | 0.2%
O=C(CCN1CCN(c2ccccc2F)CC1)Nc1ccccc1Cl
    -12 | -1.1 | 8 | -1.2 | 2 | -0.1%
CCN(CC)CCCNC(=O)c1sc2nc3n(c(=O)c2c1C)CCCCC3
    ? | · | · | 1.5 | · | -0.2%
CC1CC(C)CN(C2CCCCC2NS(=O)(=O)c2ccc(Cl)cc2)C1 (stereo not drawn)
    -16 | 2.9 | 0 | ? | -3 | 0.0%
Cc1cccc(C(=O)NC2CC3CCC(C2)N3C)c1 (stereo not drawn)
    1 | -3.6 | -1 | -0.1 | -3 | -1.4%
O=C(Nc1ccc2c(c1)OCO2)N1CCN(C(=O)C2CCCO2)CC1 (stereo not drawn)
    2 | 0.7 | -2 | 0.2 | 3 | 0.8%
CN(C)S(=O)(=O)N1CCN(S(=O)(=O)N2CCOCC2)CC1
    -1 | -4.1 | 5 | -0.7 | 7 | -0.7%
COC(=O)c1cc(OC)c(OC)cc1NC(=S)Nc1cccc(Cl)c1
    -7 | -3.3 | 6 | -0.6 | -1 | 1.4%
COc1ccc(N2CC(O)=C(c3nc4ccccc4s3)C2=N)c(OC)c1
    -12 | -2.3 | -5 | -0.5 | -6 | 2.9%
O=C(/C=C/c1ccc(Cl)c(Cl)c1)NCc1ccco1
    -14 | 1.7 | -8 | 2.1 | 5 | 4.2%
O=C(c1ccccc1)N1N=C(C(F)(F)F)CC1(O)c1ccc(F)cc1 (stereo not drawn)
    1 | -3.4 | 3 | 0.1 | 5 | 6.9%
CCC(C)(C)c1nnc(NC(=O)C2CCN(C(=O)c3ccco3)CC2)s1
    -8 | -2.3 | -1 | 0.0 | 3 | -3.1%
Cn1c(C(=O)N2CCCC(C(=O)N3CCN(C(=O)c4ccco4)CC3)C2)cc2sccc21 (stereo not drawn)
    -4 | -6.6 | -16 | 0.8 | 3 | 1.6%
Cc1nn(C)cc1CNC(=O)/C=C/c1cnn(C)c1
    -10 | -3.3 | 19 | 0.3 | 11 | 1.8%
C[C@@H]1CN([C@H](C)CO)C(=O)c2c(c3ccccc3n2C)-c2ccccc2CO[C@H]1CN(C)C(=O)CCC(F)(F)F
    -6 | -3.0 | 2 | 0.2 | 1 | 0.3%
CCOC(=O)Cn1nnnc1C(C(C)C)N(Cc1cccs1)Cc1cc2cc(C)ccc2[nH]c1=O (stereo not drawn)
    -20 | 1.9 | -12 | 1.2 | -11 | ·
CCOC(=O)C1CCN(Cc2nc(-c3ccc(OC)c(OC)c3)no2)CC1
    -10 | 3.3 | 0 | 1.5 | 4 | 1.5%
COc1ccc(S(=O)(=O)N2CCCCC2)cc1NC(=O)CCc1nc2ccccc2c(=O)[nH]1
    -8 | -4.7 | -16 | -0.3 | -20 | -0.5%
O=C(NCCSCc1ccc(Cl)cc1)C1CCN(S(=O)(=O)Cc2ccccc2)CC1
    -7 | · | · | -0.6 | · | -0.2%
Cc1ccc(C2(C)NC(=O)N(CC(=O)Nc3cc(S(=O)(=O)N4CCOCC4)ccc3C)C2=O)cc1 (stereo not drawn)
    -11 | 2.1 | 0 | -0.2 | 0 | 1.7%
Cc1cc(C(=O)N/N=C/c2c(C)[nH]n(-c3ccccc3)c2=O)n[nH]1
    14 | -6.7 | -94* | 1.1 | -91* | 0.0%
CC(NC(=O)C1CCCCC1)C(c1cccs1)N1CCOCC1 (stereo not drawn)
    1 | 3.5 | 6 | -0.5 | 12 | 0.1%
CCc1nc(Nc2ccccc2OC)c2oc3ccccc3c2n1
    · | -2.9 | 5 | · | 4 | 5.2%
CCCCNC(=O)c1cn(CC(C)C)c(=O)c2c1c1ccccc1n2C
    8 | -0.3 | 3 | -1.9 | -2 | 2.9%
COc1ccc(CNC(=O)c2ccncc2)cc1
    26 | -1.5 | -18 | -0.1 | 2 | -1.4%
CCOc1ccc2ccccc2c1/C=N/NC(=O)CC1(C)OCCCO1
    3 | -3.6 | -7 | 1.3 | -16 | 0.4%
Cc1cc(C(=O)Cn2nc(C(=O)O)c3ccccc3c2=O)c(C)n1CCc1ccc(Cl)cc1
    35 | 3.0 | -11 | 2.6 | -11 | -3.6%
COc1ccc(S(=O)(=O)N2CCCCC2)cc1NC(=O)c1ccc(N2CCCC2=O)cc1
    8 | 0.0 | 1 | -0.6 | -3 | 0.6%
CCN(CC)C(=O)c1sc2c(c1C)c(=O)n(CCc1ccccc1)c(=O)n2Cc1ccc(C)cc1
    72 | · | · | 1.8 | · | 2.5%
O=[N+]([O-])c1cnccc1Nc1ccc(F)cc1
    3 | -3.0 | 2 | -0.8 | -3 | -1.6%
COc1ccc(C(=O)NCC(c2ccc(N(C)C)cc2)N2CCCC2)c(OC)c1 (stereo not drawn)
    -20 | · | · | -0.3 | · | 1.5%
COc1ccc(NC(=O)/C(C#N)=C/c2c(C)nn(-c3ccc(F)cc3)c2Cl)cc1Cl
    17 | 1.8 | -4 | -0.1 | 8 | ?
COc1cc(NC(=O)c2cccc([N+](=O)[O-])c2C)ccc1NC(=O)c1ccco1
    55 | 2.8 | -1 | 1.2 | 0 | 7.3%
Cc1cc(C)nc(NC(=O)CSc2nn(-c3ccccc3)c(=S)s2)n1
    -1 | -3.0 | -23 | -0.5 | -6 | 0.2%
CN(C)C(CNC(=O)c1ccc(S(=O)(=O)Nc2cccc(C(F)(F)F)c2)cc1)c1ccco1 (stereo not drawn)
    5 | -3.7 | 8 | 2.5 | -5 | 0.4%
O=C(CCCCC(=O)Nc1c(I)cc(I)c(C(=O)O)c1I)Nc1c(I)cc(I)c(C(=O)O)c1I
    9 | 5.3 | -5 | -0.5 | 2 | 0.7%

Five of the compounds above, as tab-separated lines:
smiles	TRPML1 blocker	D2 agonist	CtBP-E1A inh	TRPML1 ag	Six1-Eya2 inh	PINK1 modulator
CN(C)C(CNC(=O)c1ccc(S(=O)(=O)Nc2cccc(C(F)(F)F)c2)cc1)c1ccco1 (stereo not drawn)	5	-3.7	8	2.5	-5	0.4%
COc1ccc(CNC(=O)c2ccncc2)cc1	26	-1.5	-18	-0.1	2	-1.4%
COc1ccc(S(=O)(=O)N2CCCCC2)cc1NC(=O)CCc1nc2ccccc2c(=O)[nH]1	-8	-4.7	-16	-0.3	-20	-0.5%
COc1ccc(C(=O)NCC(c2ccc(N(C)C)cc2)N2CCCC2)c(OC)c1 (stereo not drawn)	-20	·	·	-0.3	·	1.5%
Cc1cc(C(=O)Cn2nc(C(=O)O)c3ccccc3c2=O)c(C)n1CCc1ccc(Cl)cc1	35	3.0	-11	2.6	-11	-3.6%

(continued)
Each structure is followed by: TRPML1 blocker | D2 agonist | CtBP-E1A inh | TRPML1 ag | Six1-Eya2 inh | PINK1 modulator
Cc1noc(C)c1NC(=O)Nc1cccc2c1O[C@H](CN(C)S(=O)(=O)c1cccs1)[C@@H](C)CN([C@H](C)CO)C2=O
    9 | -0.9 | 2 | -0.6 | 4 | -0.5%
O=C(Nc1cccnc1Cl)c1cccs1
    28 | -0.9 | 8 | -0.3 | 8 | -0.5%
COc1ccc(-n2c(=O)c3ccccc3n(CC(=O)NC3CCCCC3)c2=O)c(OC)c1
    -1 | -1.5 | 4 | 1.3 | -2 | -1.1%
CCOC(=O)C1(Cc2ccccc2)CCN(Cc2cnc(N3CCOCC3)s2)CC1
    32 | -2.8 | -2 | -0.1 | -1 | -0.8%
Cc1ccc(-n2nc(C(=O)O)cc2-c2ccc(Cl)cc2)cc1
    10 | -3.6 | 3 | -0.5 | 7 | -0.8%
Cc1ccccc1NC(=O)C(C)c1ccc(-c2ccccc2)c(F)c1 (stereo not drawn)
    48 | 1.9 | 0 | 2.6 | 2 | 1.2%
O=C(NCCCCC(NC(=O)C1CCCCC1)C(=O)O)c1ccccc1 (stereo not drawn)
    8 | -1.0 | 0 | 0.8 | 6 | ?
COc1cccc(/C=N/NC(=O)c2cccc([N+](=O)[O-])c2)c1OS(=O)(=O)c1ccc(C)cc1
    0 | -3.2 | -12 | -0.4 | -13 | -2.8%
CCN(CC)CCNC(=O)CCCNC(=O)Cn1cnc2sc(C)c(C)c2c1=O
    2 | -1.8 | 1 | 0.0 | 6 | 1.9%
COc1cc(S(=O)(=O)N(Cc2ccco2)C2CCCC2)ccc1-n1cnnn1
    22 | -2.1 | 3 | 2.2 | -1 | -4.2%[38.3 µM]
O=C(NCC1CCCO1)c1c(O)c2cccc3c2n(c1=O)CC3 (stereo not drawn)
    1 | -4.0 | -1 | -0.4 | -8 | 2.3%
CC1(C)OC(=O)N(c2ccccc2)C12C=Cc1cc(Br)ccc1O2 (stereo not drawn)
    37 | 0.1 | -5 | 1.7 | 2 | -0.3%[38.3 µM]
COc1ccc(C)cc1NC(=O)c1nnn(Cc2cc(C)ccc2C)c1N
    -1 | -1.7 | 1 | 0.5 | 0 | 6.5%
O=C(O)CCC(=O)N1c2ccccc2NC2=C(C(=O)CC(c3ccc(F)cc3)C2)C1c1ccc([N+](=O)[O-])o1 (stereo not drawn)
    -6 | -0.4 | -6 | 0.9 | 2 | 2.7%
COC(=O)c1cccc(OC(N)=O)c1
    20 | -1.1 | -3 | -0.4 | 8 | -2.1%
CCc1nn(CC(=O)NCCCN(CC)CC)c(=O)c2cc3occc3n12
    -12 | · | · | -0.8 | · | 0.6%
COc1cc(NC(=O)COc2c(C)cc(C)cc2[N+](=O)[O-])c(OC)cc1Cl
    -12 | -3.7 | -1 | 1.0 | 0 | 1.1%
O=C(CCC(=O)N1CCN(c2ccccc2F)CC1)c1ccc(F)cc1
    -8 | -0.7 | -1 | 2.3 | 4 | 0.3%
N#CCC(=O)Nc1ccc(C(=O)OCC(=O)N2CCN(C(=O)c3ccco3)CC2)cc1
    28 | -0.1 | -28 | 0.2 | -10 | -3.3%
